# Bioassay records from PubChem.
# Bead autofluor: compound fluorescence in toxin protease inhibitor counterscreen | compound autofluorescence counterscreen, microsphere flow cytometry; stronger effect = higher value | fluorescence intensity (no concentration beside the values) | 360,000 compounds, 3.1% hits;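 active means at least 3 SD above the mean of all compounds, about 16000 in these data; inconclusive means too few beads counted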;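 further: 100 nL of 1 mM stock went into each well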
# Mtb hypoxia rep: PubChem AID 1159583; M. tuberculosis hypoxia-regulated fluorescent reporter, fluorescence; fluorescence inhibition, % (no concentration beside the values); 300,000 compounds, 0.1% hits;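 active means 35 to 45% if threefold the growth effect, above 45% if 1.5-fold the growth effect; inactive means the rest, general growth blockers included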;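 further: wells of about 50 µL received 100 nL stock; 0% = vehicle wells and 100% = reference inhibitor wells; whole bacteria with a GFP reporter of the hypoxia response; strong numbers were not always called active; many hits fall short of the cut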
# BJeLR lethal: MLPCN primary cell-based screen for lethality selective to Ras in HRASV12 cells | BJeLR (HRASV12) viability, CellTiter-Glo ATP luminescence, 48 h; reference of the scale not given here | inhibition, % (test concentration not listed) | 300,000 compounds, 0.17% hits | AID 1554, 2009;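 active means replicate mean above 50%; inconclusive means above 50% but judged a plate artefact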;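 further: 50 nL library stock added to about 25 µL; numbers are from one replicate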
# Sa RN4220 lethal: growth inhibition of S. aureus RN4220, primary screen, OD600; 16 h; inhibition, % (concentration not given with the values); 330,000 compounds, 0.33% hits;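 active means z-score of -3 or lower and OD600 up to 0.18 on both plates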;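 further: plate controls were untreated cells for no effect and reference antibiotic for full effect; stock transfer was 100 nL into about 80 µL; one replicate is shown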
# PrP 5UTR inh: inhibition of PrP 5' UTR reporter expression | cell-based PrP 5' UTR mRNA reporter, plate reader | inhibition, % (test concentration not listed) | 340,000 compounds, 0.35% hits | AID 488862, 2010;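 active means every replicate at 50% or more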;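 further: 0 = median of the neutral control wells; tested in H4 reporter cells; numbers are from one replicate; inactives centre near -14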
# Sa ugtP lethal: growth inhibition of ugtP-null S. aureus, primary screen, RN4220 ugtP deletion, OD600. 16 h; some inactives read as strong as hits. growth inhibition, % (no concentration beside the values). 330,000 compounds, 0.54% hits;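 active means z-score under -3 and OD600 up to 0.15 on both plates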;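 further: plate controls were untreated wells for no effect and antibiotic for full effect; wells of about 80 µL received 100 nL stock; the first replicate is given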
# Mtb hypoxia rep growth: second read-out of Mtb hypoxia rep, no call of its own (marks repeat the call); growth inhibition, %; measured here: M. tuberculosis growth (absorbance);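 0% = vehicle and 100% = reference antibiotic; read after six days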
# Numbers without * were called inactive; u = inconclusive; x = not tested or not shown.
# The line under a structure holds: Bead autofluor	Mtb hypoxia rep	Mtb hypoxia rep growth	BJeLR lethal	Sa RN4220 lethal	PrP 5UTR inh	Sa ugtP lethal
COc1ccc(C(=O)/C=C/Nc2cccc(C)n2)cc1OC
    2898	8.4	6.6	-0.1	2.6	-79.7	-19.1
CN(C)C=NC(=S)Nc1ccc(Cl)c(Cl)c1
    x	5.7	-4.8	x	7.1	x	16.9
N#CC(c1ccccc1)N1CCOCC1 (stereo unspecified)
    4522	-5.3	-7.2	-4.8	-0.2	-16.0	-3.1
N#Cc1ccc(/C=C2\CCn3c2nc2cc(C(=O)O)ccc2c3=O)cc1
    3471	6.6	-1.8	-6.0	-0.1	-17.6	2.6
COc1ccc(CNC(=O)c2cnc3n(c2=O)CCS3)cc1
    5518	4.3	6.6	-6.6	-2.7	-12.7	9.4
N#CCC(=O)N/N=C\c1ccc(OC/C=C/c2ccccc2)cc1
    3876	x	x	-6.6	x	-11.1	x
CC1CCCCN1S(=O)(=O)c1ccc(C(=O)Nc2nnc(C3=COCCO3)o2)cc1 (stereo unspecified)
    4593	8.7	7.9	17.9	14.8	-13.5	1.8
Cc1cc(-c2ccccc2)[nH]c(=O)c1S(=O)(=O)c1ccc(Cl)cc1
    9861	9.3	-1.0	1.8	2.8	-53.4	1.2
CN(CC(=O)Nc1ccccc1Br)C(=O)c1ccccc1OCc1ccccc1Cl
    4908	-5.3	10.3	x	22.1	-9.5	4.6
Cc1nc(COC(=O)c2cc(O)c3ccccc3c2O)cs1
    3791	13.8	7.1	14.3	7.1	-32.0	9.3
Cc1ccc(-n2nc3c(c2NC(=O)C(C)C)CS(=O)(=O)C3)c(C)c1
    2960	7.7	-4.9	13.9	-0.6	-21.8	8.9
COc1cc(/C=C2/C(=O)NC(=O)N(c3ccc(C)cc3)C2=O)cc(OC)c1OC
    3850	7.4	0.0	3.5	1.1	6.2	6.5
CN(C)CCCC1(O)c2ccccc2C=Cc2ccccc21
    5045	17.7	15.8	-20.1	4.6	-6.9	-7.6
Cc1ccc(C(=O)NCCONC(=O)c2ccc(C)cc2)cc1
    6030	-2.7	5.4	-16.3	3.2	-11.4	4.9
CC(C)(C)NC(=O)c1ccncc1
    3471	5.8	6.5	-2.0	1.3	-8.6	9.4
CCOc1cc2c3c(c1)C1(C(=O)N3C(C)(C)C=C2C)C(C#N)=C(N)Oc2cc(O)ccc21 (stereo unspecified)
    4379	-11.7	7.8	3.9	-3.6	-6.3	-13.2
CCc1c(C2(O)CCCCC2)[nH]c2cnccc12
    3412	12.3	13.9	x	2.1	-18.9	-12.7
CC(CC(=O)Nc1ccc([N+](=O)[O-])cc1)=NNC(=O)C1CC12CCC2 (stereo unspecified)
    x	10.6	12.0	x	3.5	x	13.4
COc1cc(OC)cc(-c2c(-c3ccc(F)cc3)c3cc(-c4ccc(OC)nc4)ccc3n2C)c1
    3758	4.3	10.9	x	-2.0	-17.1	0.8
O=C(NNS(=O)(=O)c1ccccc1)c1cnn(-c2ccccc2)c1-n1cccc1
    8109	11.3	11.1	-17.1	7.1	-18.6	-4.2
CCCOc1ccc(-c2c(C(=O)NN=Cc3ccco3)nnn2-c2nonc2N)cc1
    x	4.4	13.6	x	1.1	x	-6.9
CCC(=O)Nc1nnc(CSCc2ccc(F)cc2)s1
    5027	x	x	3.2	-2.4	-10.4	1.0
Cn1c(SCC(=O)N2CCCCCC2)nc2c([nH]c3ccccc32)c1=O
    3634	8.7	10.7	-3.6	7.7	4.6	1.2
O=c1[nH][nH]cc1C=Nc1ccc(Cl)cc1
    2062	-5.2	-0.8	6.6	2.1	-55.3	1.7
Clc1ccccc1/C=N/N1CCN(Cc2ccccc2)CC1
    3945	x	x	-10.1	x	-18.4	x
O=C(CSC1=NS(=O)(=O)c2cc(F)ccc2N1)NCc1ccccc1
    u	4.8	4.4	0.8	-2.5	-5.0	1.6
COCC(=O)N(CCc1ccccc1)Cc1cc2cc(C)ccc2nc1Cl
    3171	5.9	7.5	-11.8	1.4	-24.8	5.8
Cc1ccc(C(=O)N/N=C\C2CC=CCC2)cc1[N+](=O)[O-] (stereo unspecified)
    5346	x	x	-6.3	x	-14.5	x
CCOC(=O)c1cncc(O)c1
    3601	12.2	1.5	-2.3	0.0	-21.3	4.0
Cc1nc(C)c(C(=O)NN=Cc2c[nH]c3ccccc23)s1
    x	-68.3	-18.8	x	0.9	x	-0.4
Cn1c(=O)c2c(ncn2CC(=O)Nc2nc(-c3ccc(F)c(F)c3)cs2)n(C)c1=O
    4451	1.1	-5.0	-15.0	0.3	-72.5	6.0
C=CCNC(=O)c1onc(CSc2ccc(Cl)cc2)c1C(=O)NCC=C
    3841	16.9	4.0	-1.5	6.9	-16.3	4.0
O=C(O)CCCCCNC(=O)OCC1c2ccccc2-c2ccccc21
    3874	0.5	-3.3	-3.2	0.9	-6.4	7.1
O=c1c2cnn(-c3ccccc3)c2ncn1Cc1cccnc1
    2545	7.3	6.7	-5.2	1.0	-0.5	-1.4
OC(CNC1CCCCCCC1)c1ccccc1 (stereo unspecified)
    x	1.2	6.3	11.6	-0.2	x	0.1
COc1cc(/C=N\NC(=O)CC#N)ccc1OC/C=C/c1ccccc1
    6032	x	x	1.8	x	-13.0	x
Cc1cccc(Cc2c(C)nc3c(C(=O)N4CCN(Cc5ccc6c(c5)OCO6)CC4)cnn3c2C)c1
    15959	7.5	4.6	-0.2	3.9	-12.9	6.7
CN(C)c1ccc(C=NNS(=O)(=O)c2ccc(Br)cc2)cc1
    x	12.0	1.2	x	4.3	x	7.9
CCC(C)NCCOCCOc1cc(C)c(Cl)c(C)c1 (stereo unspecified)
    3226	14.9	2.5	0.1	5.5	-8.3	1.3
CC1Cc2ccccc2N1C(=O)NC1CC(=O)N(c2ccc3c(c2)OCCO3)C1 (stereo unspecified)
    5618	-8.4	7.3	-1.4	-1.2	-58.4	2.7
CC(=O)N1CCN(S(=O)(=O)c2cccc(C(=O)Nc3ccccc3N3CCCCC3)c2)CC1
    4946	x	x	x	6.2	-16.0	13.2
CC(=O)N(c1ccccc1)C(C(=O)c1ccccc1)c1ccccc1 (stereo unspecified)
    2989	x	x	x	9.8	-14.0	10.2
Cc1ccc2cc(C)c3nnc(SCC(=O)Nc4nc5c(s4)CCCC5)n3c2c1C
    9342	-3.1	-10.6	-6.0	2.5	-19.7	-13.4
CS(=O)(=O)N(CC(=O)N1CCOCC1)c1ccccc1Br
    3508	-3.7	0.0	-3.4	4.0	-34.6	4.5
Cc1cc(=O)[nH]c2ccccc12
    4224	x	x	-4.3	0.6	-15.6	-0.9
NC(=O)C1CCN(C(=O)c2ccccc2SCC(=O)NCC2CCCCC2)CC1
    6355	2.7	-1.0	1.0	2.7	-5.7	3.5
O=[N+]([O-])c1ccccc1/C=N/n1c(C2CCCCC2)n[nH]c1=S
    2119	x	x	5.5	x	-9.9	x
CCOc1c(Cl)cc(CNCc2ccncc2)cc1OC
    3876	-1.4	-0.8	4.3	-2.4	-15.6	-1.1
NC(=O)c1cccc(CS(=O)(=O)c2ccc(Cl)cc2)c1
    4410	1.8	2.3	6.2	3.5	-3.1	8.8
Cc1cc(OCC(=O)Nc2cnn(CCCC(=O)O)c2)ccc1Cl
    5580	-4.0	-0.9	8.1	-2.5	-6.6	-3.0
COc1ccc(N2CCN(C(=O)c3ccc(S(=O)(=O)N4CCCC4)cc3)CC2)cc1
    4592	5.4	-2.3	-7.1	5.4	-1.7	10.2
COc1cc(O)cc2cc3c(c(O)c12)C(=O)CC(C)(O)O3 (stereo unspecified)
    5038	x	x	x	3.6	-8.3	-13.8
COc1cccc2sc3cc(C#CC4(O)CCCCC4)ccc3c(=O)c12
    3910	2.7	7.7	x	13.9	-28.6	8.0
CC(C)Cc1nc(SCC(=O)Nc2nnc(CC(C)C)s2)n[nH]1
    4527	-4.3	1.6	-3.3	4.5	-16.2	15.1
Cc1ccsc1C(C(=O)NC(C)(C)C)N(Cc1ccco1)C(=O)c1csnn1 (stereo unspecified)
    3077	17.1	9.6	-16.1	6.2	-8.0	6.8
O=C(Cc1ccc(Cl)cc1)SCc1ccccc1
    4013	-8.4	-11.7	x	9.5	-1.0	6.3
Cc1ccc(N2CC(O)=C(c3ccccc3)C2=N)cc1
    4059	7.7	12.9	0.6	0.6	-34.3	6.0
Nc1ccc(C(=O)c2cccs2)cn1
    3361	x	x	3.9	x	-6.9	x
O=C(Nc1ccc(-c2cn3ccsc3n2)cc1)C1CC1
    5152	x	x	9.5	3.1	-51.4	-11.8
Cc1nnc(SCC(=O)Nn2cnnc2)s1
    3374	-3.2	0.4	11.0	2.9	-74.6	-2.3

# (further entries)
# The line under a structure holds: Bead autofluor	Mtb hypoxia rep	Mtb hypoxia rep growth	BJeLR lethal	Sa RN4220 lethal	PrP 5UTR inh	Sa ugtP lethal
CC(C)(C)c1ccccc1NC(=O)c1ccc(-n2cncn2)c([N+](=O)[O-])c1
    x	-3.3	14.7	-1.9	2.3	-9.3	0.6
CCN(C(=O)COC(=O)c1ccc(C=O)cc1)c1c(N)n(Cc2ccccc2)c(=O)[nH]c1=O
    4119	11.0	4.4	x	-0.2	-6.3	0.9
CC(C)N(C(=S)NCc1ccccc1)C(C)C
    1973	-7.8	-6.5	-9.1	1.8	-19.4	15.2
O=C(CNc1cccc(S(=O)(=O)N2CCCC2)c1)Nc1cccc(Br)c1
    5211	4.2	5.4	7.8	6.6	-12.3	-8.8
Cc1cc(-c2nnc(SCC(=O)Nc3ccccc3)n2C)no1
    4305	0.4	-0.5	-15.0	1.3	-5.4	3.2
O=C1/C(=C/c2cccc(Br)c2)SC(=S)N1CCC(=O)N(CCO)c1ccccc1
    3084	3.7	9.0	-10.3	2.9	-60.6	-12.4
O=C(Nc1ccc(Cl)cc1)Nc1ccc(N2CCCC2)c(S(=O)(=O)Nc2ccccc2Cl)c1
    2749	13.9	4.0	5.1	21.2	-15.2	-4.5
O=C(CCn1nnc2ccccc21)N/N=C\Cc1ccccc1
    2510	x	x	-2.5	x	1.7	x
CCOC(=O)C1(CCOc2ccccc2)CCN(Cc2cccc(OC)c2)CC1
    4012	x	x	-11.2	x	-2.9	x
CCC(C)[C@H](NC(=O)NCc1ccc(Cl)cc1)C(=O)O (stereo partly specified)
    4272	10.3	8.8	-1.0	1.9	-13.0	-0.5
O=C(Nc1nc(-c2ccc(-c3ccccc3)cc2)cs1)C1CCCO1 (stereo unspecified)
    3434	-10.9	-4.1	-4.4	5.6	-7.9	9.0
CN(Cc1nccs1)C(=O)c1ccc2nc(Cc3ccccc3F)oc2c1
    u	7.7	-3.4	-9.5	7.3	-64.5	11.0
CCOC(=O)[C@@H]1[C@H]2COc3ccc(Br)cc3[C@@H]2N2C(=O)N(c3ccc(Br)cc3)C(=O)[C@]12C
    3761	x	x	-8.3	x	-20.2	x
COc1ccc(C2NC(=S)NC3=C2CCc2ccccc23)cc1OC (stereo unspecified)
    8983	10.9	-9.6	1.9	6.7	-2.6	6.0
Cc1ccc(NC(=O)N(Cc2ccc3c(c2)OCO3)Cc2cc3cc4c(cc3[nH]c2=O)OCCO4)cc1
    3089	x	x	-8.7	-9.3	-29.3	8.0
CCOc1ccc(CNC(=O)C2CCC(=O)N2C2CCCC2)cc1OC (stereo unspecified)
    6095	-2.5	-3.4	-3.5	-3.9	-1.2	-6.2
Cc1cc(C)cc(NC(=O)C(=O)NCCCN2CCCC2=O)c1
    u	2.2	2.4	3.6	2.8	-79.7	4.5
COc1ccc(Cl)cc1-n1c(C)cc(C(=O)O)c1C
    3364	5.2	6.1	-1.8	-6.2	-3.7	-7.0
Cn1c(=O)n(C)c2cc(C=NNC(N)=S)ccc21
    x	x	x	x	3.7	x	1.2
Cc1ccc(/C=N/Nc2nc(Cl)c(Cl)cc2Cl)s1
    2366	x	x	-1.6	x	-107.8	x
CCOC(=O)C1(Cc2ccccc2Cl)CCN(Cc2csc(C(C)=O)c2)CC1
    5067	5.2	5.9	-0.6	10.7	-22.0	8.1
